Assay outcomes (PubChem BioAssay)
ClpP mod: qHTS Assay for Activators of ClpP; purified B. subtilis ClpP, FRET peptide cleavage, 20 min; Potency, µM (highest dose often 57.5 µM), for inactives: top-dose activity change, negative = active; actives 1.9% (n = 340,000); active = well fitted falling curve with a large enough effect; inconclusive = small, poorly fitted or top-dose-only effect; inactive = no such curve, though single readings can be large or run the other way; note: potency is the fitted concentration of half-maximal effect; the source files actives as falling curves though it sought activators and does not explain the sign; nearly all actives have a fitted effect of over 65% in size; many hits overshoot -100%
Target sequence (P80244 whole entry, looked up): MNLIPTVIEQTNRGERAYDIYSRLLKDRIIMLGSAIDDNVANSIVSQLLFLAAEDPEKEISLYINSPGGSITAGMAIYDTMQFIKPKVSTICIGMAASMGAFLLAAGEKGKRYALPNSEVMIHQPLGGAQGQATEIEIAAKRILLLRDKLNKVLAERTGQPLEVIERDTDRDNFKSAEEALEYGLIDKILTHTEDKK
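Purified B. subtilis ClpP, 10 microg/mL final in Tris/HCl pH8 with KCl, BSA, glycerol and Tween-20, cleaved an Abz/nitrotyrosine-quenched decapeptide. Fluorescence (ex 320, em 430) was read at 0 and 20 min at room temperature. Delta was normalized to 5.8 microM ADEP and DMSO/no-enzyme controls.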
TRPV1 PAM: HTS Assay for Compounds that Act as Potentiators of the Vanilloid Receptor 1; TRPV1-expressing cells, Fluo-8 calcium influx, capsaicin EC20 potentiation; host cell line not named in the record; control for the full effect not named in the record; potentiation, % at 8.33 µM; actives 0.02% (n = 320,000); AID 540277, 2011; active means potentiation above 80%; inconclusive means 30% to 80%; inactive means below 30%; note: 0% is about no effect
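Fluo-8 calcium influx in TRPV1-expressing cells, kinetic read (ex 480/em 520 nm). Compound added and read 3 min for agonist activity, followed by capsaicin at EC20 final and 2 min further read for enhancement.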
gsp antagonist: qHTS for Antagonists of gsp, the Etiologic Mutation Responsible for Fibrous Dysplasia/McCune-Albright Syndrome: qHTS; actives 0.4% (n = 340,000); Potency, µM (doses to about 76.9 µM), for the others: top-dose activity change, negative = inhibition, usual class: inhibitors; gsp-mutant cells, cAMP HTRF, 30 min; control for the full effect not named in the record; AID 624288, 2012; active = falling curve of any shape with a large fitted effect; inconclusive = falling curve, mostly with a smaller effect; inactive = flat or rising curve; cell line not stated here;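 note: intracellular cAMP measured with PDE inhibitor Ro 20-1724 present during compound exposure; potency is the fitted concentration of half-maximal effect; % is set by controls: 0 for no effect and ±100 for the full control effect; nearly all actives have a fitted effect of over 65% in size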
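HTRF cAMP read-out (cAMP-d2 plus anti-cAMP antibody-K in lysis buffer, 30 min RT). Before lysis, cells are exposed to compounds with […] for 30 min at 37C in DPBS containing Ca/Mg, BSA and Tween 20.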
TRPML1 blocker: qHTS for Inhibitors of the Human Mucolipin Transient Receptor Potential 1 (TRPML1); Mucolipin-1 (Homo sapiens), Q9GZU1; TRPML1-inducible cells, Ca2+ dye fluorescence, FDSS; hits give low values; inhibition of EC80 agonist-evoked calcium signal; activity change, negative = inhibition, % (concentration not given with the values); actives 0.02% (n = 390,000); AID 624415, 2012; in the data active means activity change below about -50%; inconclusive means about -30% to -50%; inactive means above about -30%;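 note: stimulus is agonist 54-4 at its EC80 concentration; % is set by controls: 0 for no effect and ±100 for the full control effect; compound concentration not given in the record; the text of the record puts the active cut at -80%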
Target sequence (Q9GZU1 whole entry, looked up): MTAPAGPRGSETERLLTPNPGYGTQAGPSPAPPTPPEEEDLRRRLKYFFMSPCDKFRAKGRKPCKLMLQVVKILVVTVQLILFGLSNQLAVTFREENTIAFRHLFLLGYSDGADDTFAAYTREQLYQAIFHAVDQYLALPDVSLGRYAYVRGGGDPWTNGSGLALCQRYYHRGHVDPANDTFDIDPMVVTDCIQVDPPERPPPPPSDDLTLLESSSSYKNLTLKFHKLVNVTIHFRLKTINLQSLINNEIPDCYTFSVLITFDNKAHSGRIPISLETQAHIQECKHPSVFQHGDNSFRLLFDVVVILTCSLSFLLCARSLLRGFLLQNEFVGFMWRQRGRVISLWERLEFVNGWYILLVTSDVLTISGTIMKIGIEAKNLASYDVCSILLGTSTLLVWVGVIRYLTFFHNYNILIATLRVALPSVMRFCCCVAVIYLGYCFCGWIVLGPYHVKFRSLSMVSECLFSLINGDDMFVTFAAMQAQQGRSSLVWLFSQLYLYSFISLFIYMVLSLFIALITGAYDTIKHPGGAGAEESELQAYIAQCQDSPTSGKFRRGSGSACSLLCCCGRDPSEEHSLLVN
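Calcium fluorescence in TRPML1-DL cells induced overnight with Tet: a 110 s read after compound pin addition, then a 110 s antagonist read after challenge with 54-4 at 4 uM final (EC80).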
gsp agonist: qHTS for Agonist of gsp, the Etiologic Mutation Responsible for Fibrous Dysplasia/McCune-Albright Syndrome: qHTS; actives 0.13% (n = 340,000); Potency, µM (doses to about 76.9 µM), without a hit: top-dose activation (cAMP increase), actives largely listed as activators; gsp mutant cells, cAMP HTRF, 30 min; control for the full effect not named in the record; active = well fitted activation curve with a large enough effect; inconclusive = small, poorly fitted or top-dose-only effect, or another doubt; inactive = no such curve, though single readings can be large or run the other way; cell line not stated here;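 note: phosphodiesterase inhibitor Ro 20-1724 added with compounds to block cAMP breakdown; potency is the fitted concentration of half-maximal effect; nearly all actives have a fitted effect of over 60% in size; about a fifth of the inactives were tested at one dose only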
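Cells stably selected in G418 were plated at 2000/well, grown 16-24 hr, then given compounds in DMSO with the PDE inhibitor […] (300 uM solution added) for 30 min at 37C; cAMP was read by HTRF.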
Menin MLL FP FL: qHTS Assay for Inhibitors Targeting the Menin-MLL Interaction in MLL Related Leukemias: Competition With Fluorescein Labeled MLL-derived Peptide. Fluorescence polarization, fluorescein-MLL peptide displacement from menin. FP activity change, % at 61.4 µM. 290,000 tested, under 10 active; inconclusive = falling polarisation curve, or a change in total fluorescence; inactive = total fluorescence flat and polarisation flat or rising; no compound was filed as active; the % refers to the polarisation; negative = inhibition;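 note: % of control where 0% means no effect; inhibitors lower the polarisation; unlabelled MLL peptide was the positive control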
Sfp inh: qHTS Assay for Inhibitors of Bacillus subtilis Sfp phosphopantetheinyl transferase (PPTase). 4'-phosphopantetheinyl transferase ffp (Bacillus subtilis), Q9F4F7. Potency, µM, for the others: max response, negative = inhibition, most hits filed as inhibitors. Biochemical Sfp PPTase activity, qHTS. actives 3.5% (n = 310,000); active = well fitted inhibition curve with a large enough effect; inconclusive = small, poorly fitted or top-dose-only effect, or another doubt; inactive = no such curve, though single readings can be large or run the other way;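 note: the enzyme is Sfp with the accession as filed and its product quenches rhodamine fluorescence; potency is the fitted concentration of half-maximal effect; 0% = enzyme reaction without inhibitor and -100% = no enzyme wells; top concentration of the series not given in the record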
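Buffer: 50 mM Hepes-Na pH 7.6, 10 mM MgCl2, 0.01% Nonidet P-40, 0.01% BSA. Enzyme 15 nM, pre-exposed to compound 15 min; substrates then added and fluorescence change tracked over 30 min.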
An asterisk follows results filed as active; ? = inconclusive; . = no result given; & = joins results of further samples; [ ] = dose if it differs, or a comment. Hits appear at their usual frequency; overall some 4.9% were active at least once.

SMILES	ClpP mod	TRPV1 PAM	gsp antagonist	TRPML1 blocker	gsp agonist	Menin MLL FP FL	Sfp inh
O=c1c2c(nc3nc(NCc4ccc(Cl)cc4)[nH]n13)CCC2	.	0	2%	39	2%	2.6	24%
O=C(CNC(=O)C12CC3CC(CC(C3)C1)C2)OCc1cc(=O)n2cc(Br)ccc2n1	.	5	-1%	-12	-10%[15.4 µM]	-1.1	22%
CCOC(=O)N1CCN(C(=O)c2ccccc2NC(=O)c2ccccc2Cl)CC1	0.5%	10	12%	-10	?	-7.9	15%
Cc1noc(C)c1NC(=O)N(C)C[C@@H]1Oc2ccc(NC(=O)Cc3cn(C)c4ccccc34)cc2CC(=O)N([C@H](C)CO)C[C@@H]1C	-1.1%	.	8%	0	.	.	.
CCn1nc(NC(C)=O)c2cc3cccc(C)c3nc21	-4.5%	-7	-6%	-4	-19%	-0.2	-13%
CCOCCCNC(=O)C1CCN(S(=O)(=O)N2CCCCC2)CC1	-0.7%	0	13%	5	7%	1.0	15%
Cc1ccc(S(=O)(=O)N2CCC(C(=O)N3CCc4ccccc43)CC2)cc1C	1.5%	19	10%	8	-1%	.	.
CCOC(=O)c1ccc(-c2ccc3[nH]c4ccccc4c(=O)c3c2)cc1F	-17%	28	1%	-16	16%	4.8	10%
Fc1ccc2[nH]c3c(N4CCN(Cc5ccc6c(c5)OCO6)CC4)ncnc3c2c1	-28%	-4	?	11	3%	0.8	0%
CNC(=O)CSc1nc2nn(-c3ccccc3)c(=O)c-2c2n1CCCCC2	1.0%	1	-25%	-5	11%	2.1	7%
COc1cc(OC)c(C(=O)Nc2cc(S(=O)(=O)N3CCOCC3)ccc2N2CCOCC2)cc1OC	4.6%	.	.	2	9%	.	.
S=c1[nH]c2cc(-c3ccccc3)ccc2o1	.	3	4%	-13	-9%[15.4 µM]	-12	?
O=C(CNS(=O)(=O)c1ccc(Br)s1)NCc1ccc(F)cc1	.	-8	9%	-4	0%[15.4 µM]	-1.9	23%
CC1CCCN(CCCNC(=O)c2ccc3c(c2)N(Cc2ccccc2F)C(=O)c2ccccc2S3(=O)=O)C1 (stereo not drawn)	1.9%&2.3%	-7	-1%	-1&-1	?	.	4%
CC(C)Sc1nnc([C@H](C)NC(=O)OC(C)(C)C)o1	-2.3%	-4	2%	-6	6%	-0.8	8%
COc1ccc(NC(=O)CN2CCCC(C)C2)c([N+](=O)[O-])c1 (stereo not drawn)	1.9%	-23	10%	-2	-3%	6.3	-8%
CCCCC(=O)OC1CCC2C3CCc4cc(O)ccc4C3CCC12C (stereo not drawn)	-5.2%	.	-7%	4	.	.	.
COc1ccc(N2CCN(C(=O)c3ccc4c(Cl)c5c(nc4c3)CCCC5)CC2)cc1	-0.6%&2.4%	-13	-8%	3&-1	-11%	2.3	5%
O=C1CC(Nc2cc(=O)[nH]c(=O)[nH]2)C(=O)N1c1ccccc1Cl (stereo not drawn)	-1.6%	-7	9%	.	-31%[inhibitor]	-0.2	5%
CCCCCCN1C[C@H](O)[C@@H](n2cc(-c3ccc(F)cc3)nn2)C[C@@H]1c1ccccc1	-2.5%	.	.	42	15%	.	.

Structures above that have bromine (2):
SMILES	ClpP mod	TRPV1 PAM	gsp antagonist	TRPML1 blocker	gsp agonist	Menin MLL FP FL	Sfp inh
O=C(CNC(=O)C12CC3CC(CC(C3)C1)C2)OCc1cc(=O)n2cc(Br)ccc2n1	.	5	-1%	-12	-10%[15.4 µM]	-1.1	22%
O=C(CNS(=O)(=O)c1ccc(Br)s1)NCc1ccc(F)cc1	.	-8	9%	-4	0%[15.4 µM]	-1.9	23%

(more compounds)
SMILES	ClpP mod	TRPV1 PAM	gsp antagonist	TRPML1 blocker	gsp agonist	Menin MLL FP FL	Sfp inh
COc1ccc(OC)c(-c2nnc(SCC(=O)N3CCCc4ccccc43)o2)c1	-9.7%	18	-4%	5	1%	2.1	-14%
CCOC(=O)C1CCN(C(=O)Cn2nc(C)c3c(C)n(-c4ccccc4)nc3c2=O)CC1	-3.7%	2	6%	-5	?	0.3	2%
O=C1CSC(c2cn(-c3ccccc3)nc2-c2ccccc2)N1Cc1ccco1 (stereo not drawn)	0.7%	25	-18%	41	-42%[inhibitor]	2.9	4%
CCOC(=O)c1sc(NC(=O)CCCn2nc([N+](=O)[O-])c(Cl)c2C)c(C(=O)OCC)c1C	-2.9%	1	-3%	-9	?	0.6	-5%
O=c1[nH]c(C2CCN(S(=O)(=O)c3ccccc3C(F)(F)F)CC2)nc2c1nnn2Cc1cccc(F)c1	.	-6	3%	23	0%[15.4 µM]	-3.6	-3%
COC(=O)c1sc2nc(SCc3ccccc3C)n(N)c(=O)c2c1C	-0.3%	9	23%	-18	2%[15.4 µM]	3.7	5%
COc1ccccc1CC(O)CC1c2c(cc3c(c2OC)OCO3)CCN1C (stereo not drawn)	-5.1%	.	-12%	23	8%	.	.
Cc1ccc(S(=O)(=O)N2CCN(C(=O)c3ccccc3)C2C(C)C)cc1 (stereo not drawn)	-1.5%	2	-20%	34	-8%	-1.9	8%
CCOC(=O)c1c(NC(=O)C2C3C=CC(C3)C2C(=O)O)sc2c1CCC(CC)C2 (stereo not drawn)	25µM*	?	-16%	2	17%	.	8%
Cc1ccc(NC(=O)CN2CCc3cc4c(cc3C2C)OCCCO4)cc1C (stereo not drawn)	-1.2%	-30	-20%	2	-15%	.	-4%
NC(=O)c1ccccc1NC(=O)CCN1C(=O)c2ccccc2C1=O	-2.1%	10	2%	16	5%	1.5	6%
Cn1cc2c(=O)n(/N=C/c3ccccc3)cnc2n1	2.4%	6	-3%	8	-79%[inhibitor]	-0.4	13%
CCN(CC)C(=O)NC1CC(=O)N(c2ccc(OC)cc2)C1 (stereo not drawn)	-1.2%	-4	10%	9	0%[15.4 µM]	2.0	21%
CC(=O)Nc1cccc(NC(=O)CSc2nnc3ccc(-c4ccncc4)nn23)c1	-15%	-15	20%	-4	10%[15.4 µM]	.	.
COC(=O)c1cccn(CC(=O)c2ccc(Cl)cc2)c1=O	.	2	.	31	10%[15.4 µM]	-3.0	7%
O=C(CSc1ccccn1)Nc1ccc(F)c([N+](=O)[O-])c1	1.1%	-1	-4%	-19	-18%[15.4 µM]	2.1	9%
CCCCOc1ccc(C(=O)NCC(=O)NCC(c2ccc(OC)cc2)N2CCCC2)cc1 (stereo not drawn)	-2.3%	?	15%	1	-2%	.	.
CCc1noc(C)c1C(=O)Oc1ccc(N(C)S(=O)(=O)c2ccccc2)cc1	-6.1%	?	-19%	83	0%[15.4 µM]	.	.
COc1ccc(S(=O)(=O)NCc2cccnc2)cc1C(=O)NC1CCCCC1	1.3%	12	-6%	-4	16%	0.3	20%
Cc1ccccc1NC(=S)NC1CCCC1	-1.1%	-11	11%	-26	0%[15.4 µM]	1.1	5%
O=C(c1ccc(Cl)c([N+](=O)[O-])c1)N1CCN(c2ccccc2)CC1	.	3	-3%	-6	-11%	-3.7	-8%
COc1cc(C)c(Br)cc1S(=O)(=O)NCCCN1CCOCC1	.	2	10%	-8	19%[15.4 µM]	-2.2	4%
COC(=O)c1ccc(S(=O)(=O)N(CCO)Cc2ccccc2)n1C	.	16	6%	24	26%	-1.0	42%[activator]
COc1cc2c(cc1OC)C(C)N(C(=O)Nc1cc(C)cc(C)c1)CC2 (stereo not drawn)	0.5%	3	23%	12	?	12	14%
NS(=O)(=O)c1ccc(NC(=O)COc2cccc3ccccc23)cc1	-1.3%	-18	4%	-6	?	0.0	1%
COC(=O)c1sc(-c2cccs2)cc1NC(=O)/C=C/C(=O)O	.	-30	22µM*	-20	?	16	-9%
O=C(CCN1C(=O)c2ccccc2C1=O)NCc1ccc(Cl)cc1	.	-6	0%	-5	9%[15.4 µM]	-1.9	-3%
CN(Cc1ccccc1)C(=O)C1CCN(Cc2ccc(F)cc2)CC1	-1.6%	-1	14%	21	7%	-0.5	-10%
O=C(CSc1n[nH]c(-c2cccs2)n1)N1CCCCC1	-11%	-7	7%	-5	-30%	.	.
Cc1cccc(N2CCN(C(=O)C(C)n3nc(C)n4c(cc5occc54)c3=O)CC2)c1C (stereo not drawn)	-0.8%&1.9%	3	?	35&34	?	-6.6	-6%
Cc1cccc(C(=O)N2CCc3cc(-c4nc(NC(=O)CN5CCCC5)sc4C)ccc32)c1	.	2	-27%	0	-6%	.	-4%
NNc1nc(-c2ccccc2Cl)nc2sc3c(c12)CCCC3	-3.0%	-1	-18%	3	-4%	0.4	50µM*
O=[N+]([O-])c1cccc(-c2nnc(SCc3cccnc3)o2)c1	1.5%	10	-2%	10	7%	-4.9	-4%
O=C(NCc1ccco1)C1CCCN(S(=O)(=O)c2ccc(Cl)cc2)C1 (stereo not drawn)	0.7%	8	-1%	-4	17%	1.4	7%
CCOC(=O)C(C)c1nn(C)c(=O)c2ccccc12 (stereo not drawn)	-0.3%	5	-21%	-5	-42%[inhibitor]	1.2	9%
Cc1nc2ccc(N=NC3=C(O)CCCC3=O)cc2s1	-3.1%	0	-19%	4	9%	4.5	7%
CCC(=O)Nc1ccccc1-c1nc2ccccc2[nH]c1=O	-0.2%	22	6%	-11	-2%[15.4 µM]	1.7	12%
O=C(c1cc(COc2ccc3ncccc3c2)on1)N1CCCC(O)C1 (stereo not drawn)	.	3	-8%	6	-11%	0.5	17%
Cc1cc(Br)ccc1SCC(=O)Nc1cccnc1	.	-5	5%	17	-51%[inhibitor]	0.2	10%
C=CCn1cccc(C(=O)Nc2ccc(OC)cc2)c1=O	.	-17	-2%	26	1%[15.4 µM]	6.4	9%
